High-throughput results deposited in PubChem BioAssay by several laboratories.
Arbovirus anti: antivirals against arbovirus infection. arbovirus infection cell-based antiviral screen. inhibition, % at 10 µM. 200,000 tested, 0.37% active;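 active = inhibition from about 30%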;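 note: bluetongue infection of BSR cells; cell survival read as ATP light after 72 h; 0% = infected wells without compound and 100% = uninfected wells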
Mtb betalactam: beta-lactam sensitization of Mtb H37Rv; M. tuberculosis H37Rv growth with meropenem, percent inhibition; hits of this screen are not shown here; inhibition, % at 25 µM; 330,000 tested, 0.27% active; AID 434955;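 active = about 74% or more and at least 40 points above the plate without the antibiotic, then above 30% in a dose series; inconclusive = first-round hits that could not be retested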;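 note: growth measured after seven days incubation then overnight dye step; 0% = bacteria only wells and 100% = bacteria with antibiotic; twin plates without the antibiotic show which effects depend on it; some results filed as inactive read as strong as hits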
Mtb growth: M. tuberculosis H37Rv growth inhibitors, H37Rv strain (AID 1626). M. tuberculosis H37Rv growth inhibition; higher % means a stronger effect. one-dose inhibition, % at 10 µM; IC50 in µM for titrated hits. 220,000 tested, 0.95% active;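 active = confirmed in a dose series; inconclusive = inhibition above 80% but not taken into the dose series; inactive = below 80% or under 30% at every dose of the series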;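 note: bacteria incubated seven days before Alamar blue readout; 0% = bacteria only wells and 100% = bacteria with antibiotic wells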
RecA intein inh: Mtb RecA intein splicing inhibition; P9WHJ3; cell-free RecA intein splicing, fluorescence; inhibition, %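 (about 9 µM by stock and volumes)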; 290,000 tested, 0.75% active; AID 2221; in the data active = inhibition above about 30%; inconclusive = no clear call, values can overlap the other calls;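 note: 0% = vehicle wells and 100% = reference inhibitor control wells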
Target sequence (P9WHJ3 whole entry, looked up): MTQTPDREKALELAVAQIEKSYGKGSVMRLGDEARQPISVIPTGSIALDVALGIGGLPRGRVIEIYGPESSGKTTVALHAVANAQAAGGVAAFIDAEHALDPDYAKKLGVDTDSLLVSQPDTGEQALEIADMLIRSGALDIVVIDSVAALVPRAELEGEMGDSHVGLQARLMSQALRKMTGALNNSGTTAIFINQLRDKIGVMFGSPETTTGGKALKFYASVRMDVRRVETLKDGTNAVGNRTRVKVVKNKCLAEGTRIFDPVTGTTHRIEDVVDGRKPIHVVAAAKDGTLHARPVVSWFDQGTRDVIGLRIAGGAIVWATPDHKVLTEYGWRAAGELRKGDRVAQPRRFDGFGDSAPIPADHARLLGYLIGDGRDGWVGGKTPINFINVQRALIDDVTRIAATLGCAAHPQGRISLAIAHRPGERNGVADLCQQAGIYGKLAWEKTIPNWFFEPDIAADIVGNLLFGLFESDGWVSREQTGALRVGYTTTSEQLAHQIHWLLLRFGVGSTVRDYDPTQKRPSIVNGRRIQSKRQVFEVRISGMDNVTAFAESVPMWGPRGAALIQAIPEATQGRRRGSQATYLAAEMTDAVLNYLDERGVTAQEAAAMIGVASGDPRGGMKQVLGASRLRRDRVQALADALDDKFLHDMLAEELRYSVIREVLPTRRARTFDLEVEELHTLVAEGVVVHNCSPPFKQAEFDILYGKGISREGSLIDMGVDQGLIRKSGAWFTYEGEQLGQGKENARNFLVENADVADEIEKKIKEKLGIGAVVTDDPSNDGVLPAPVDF
YopH inh: blocks Yersinia enterocolitica YopH tyrosine phosphatase; inhibition, %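 (about 10 µM by stock and volumes)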; AID 898; 140,000 tested, 0.16% active; fluorescence Ex485/Em525;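 active = inhibition of 50% or more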;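 note: controls were vehicle for no effect and minimum signal wells for full effect; inactives centre near -20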
Arbovirus anti repeat: second read-out of Arbovirus anti, no call of its own (marks repeat the call); inhibition, %; measured here: 10K subset replicate screen; many hits read low in the repeat;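 first of two repeat runs on a subset; 0% = infected and 100% = uninfected wells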
An asterisk follows results filed as active; ? = inconclusive; . = no result given. Only part of the results is shown. The share of hits here may be higher or lower than overall.

SMILES	Arbovirus anti	Mtb betalactam	Mtb growth	RecA intein inh	YopH inh	others
CC1=C(C(=O)N2CCN(c3cc(C)ccc3C)CC2)C2(CCCCC2)OC1=O	2	1	.	.	-34
CCn1cc(/C=C(\NC(=O)c2ccc(OC)cc2)C(=O)N2CCOCC2)c2ccccc21	.	-2	.	-5.3	.
CCCN1C(=O)/C(=C/c2cc(C)n(C)c2C)SC1=Nc1ccc(OC)cc1	-9	14	11%	1.8	-31
CCOC(=O)CSc1nnc(COc2cccc(C)c2)o1	0	3	-5%	4.1	.
CCOC(=O)N1N=C(c2ccccc2)CC1(O)C(F)(F)F (stereo unspecified)	3	-3	.	2.1	-34
Cc1cccc(CCNC(=O)COc2cc(=O)n(C)c3ccccc23)c1	-7	0	6%	0.6	.
CC(C)CNC(=O)CSc1nnc(-c2cccc(S(=O)(=O)N3CCCCC3)c2)o1	6	30	1%	0.6	-14
CCOC(=O)CC1C(=O)NC2CCCCC2N1C(=O)Nc1ccc(Cl)cc1 (stereo unspecified)	-3	1	0%	1.2	-24
COc1ccc(Cl)cc1-n1c(=S)sc2c(=O)[nH]c(SCC(=O)C(C)(C)C)nc21	.	2	.	9.4	.
CCN(C(=O)COC(=O)c1cc([N+](=O)[O-])ccc1N1CCOCC1)C1CCCCC1	.	-18	.	0.6	.
COC(=O)c1ccc(NC(=O)CCc2nnc3ccc(N4CCC5(CC4)OCCO5)nn23)cc1	.	5	.	-1.7	.
CCN(c1nc(C)cc(OC)n1)S(=O)(=O)c1ccccc1	-6	2	-6%	3.7	0
CCOC(=O)N1CCC(N(CCN(C)C)C(=S)Nc2ccc(Oc3ccccc3)cc2)CC1	-31	-5	2%	12	.
Cc1ccc(C(=O)N/N=C\c2ccc(OC(=O)c3cccc(F)c3)cc2)cn1	.	48	.	2.3	.
COc1ccc(C(C(=O)NC2CCCC2)N(Cc2ccccc2)C(=O)c2snc(C(N)=O)c2N)cc1OC (stereo unspecified)	.	-6	.	4.9	.
O=C(O)c1cnc(-c2ccccc2)nc1Sc1ccccc1	10	5	-1%	-0.7	-30
CN(C)CCC1Sc2ccccc2Oc2ccccc21 (stereo unspecified)	-6	-10	6%	-2.4	-29
Cc1cccc(CCNC(=O)C2CCN(S(=O)(=O)c3c(C)nn(C)c3C)CC2)c1	13	-3	2%	1.8	-14
Cc1ccccc1CC(=O)NCCN1CCOCC1	.	3	.	-0.7	.
CCc1nnc(NC(=O)CSc2nnc(Cc3ccccc3)n2-c2ccccc2)s1	12	-10	-7%	-2.1	-36
O=C(N/N=C\c1cccnc1)c1ccc(Cl)cc1Cl	.	-10	.	-0.7	.
COC(=O)c1cn(C(=O)c2cc(OC)cc(OC)c2)c2ccccc12	.	5	.	11	.
CC(Sc1ccccc1)C(=O)N1CCN(S(=O)(=O)c2ccccc2C(F)(F)F)CC1 (stereo unspecified)	.	6	.	2.1	.
Cc1cccc(CN2CCCC(C(=O)c3ccc(C(F)(F)F)cc3)C2)n1 (stereo unspecified)	13	93	?	.	.
CC(=O)Nc1ccc(Nc2ncnc(N)c2[N+](=O)[O-])cc1	.	17	1%	2.0	.
CCOC(=O)c1nn(-c2ccc3ccccc3c2)cc1O	5	99	?	-0.3	.
CCOc1cc(C(=O)NCC(C)CN(C)C)cc(OCC)c1OCC (stereo unspecified)	-3	-3	-7%	2.5	-6
Cn1cc(CNC(=O)C2CCCCC2)cn1	12	-7	-2%	-1.9	1
CC(C)(C)NC(=O)CON=C1c2ccccc2-c2ccccc21	-13	6	26%	7.4	-27
O=C(Nc1cc2c(=O)n(-c3ccc(Oc4ccccc4)cc3)ccc2oc1=O)c1ccccc1	-3	2	4%	-55	.
COc1ccccc1N1CCN(C(=O)C(C)N(c2ccc(C)c(C)c2)S(C)(=O)=O)CC1 (stereo unspecified)	-4	-4	2%	1.3	-10
O=C(Nc1cccc(S(=O)(=O)NC2=NCCCCC2)c1)c1cc(-c2ccccc2)nc2ccccc12	7	19	22%	3.3	-4
COc1ccc(-c2nnc(SCC(=O)NNC(=O)c3ccc(C)cc3)o2)cc1	-4	7	-4%	-5.8	-29
Cc1cccc(CN2CCC(C(=O)Nc3cccc(-c4cscn4)c3)CC2)n1	.	-2	.	-8.0	.
Cc1cc(NC(=O)c2ccc(N3C(=O)C4C5C=CC(C5)C4C3=O)cc2)no1 (stereo unspecified)	-3	5	-8%	0.1	.
CCOCCOc1cccc(C(=O)NC(c2ccccc2)c2ccccc2)c1	.	1	.	-4.4	.
CCOC(=O)c1ccc2[nH]c3c(c2c1)CN(C)CC3	1	-3	4%	-4.2	-14	Arbovirus anti repeat=3
CCc1ccc(NC(=S)N(CCCN2CCN(C)CC2)Cc2cccs2)cc1	-8	-7	-3%	-0.9	-14
CCCc1ccc2oc(C(=O)N(C)Cc3ccn[nH]3)c(C)c2c1	.	11	.	3.5	.
O=C(CN1CCCC1)Nc1c2c(nc3ccccc13)N(Cc1ccccc1)CC2	-5	3	9%	1.5	-23

An excerpt from above in order of length of the SMILES, falling.
SMILES	Arbovirus anti	Mtb betalactam	Mtb growth	RecA intein inh	YopH inh	others
Cc1cc(NC(=O)c2ccc(N3C(=O)C4C5C=CC(C5)C4C3=O)cc2)no1 (stereo unspecified)	-3	5	-8%	0.1	.
COc1ccc(-c2nnc(SCC(=O)NNC(=O)c3ccc(C)cc3)o2)cc1	-4	7	-4%	-5.8	-29
O=C(CN1CCCC1)Nc1c2c(nc3ccccc13)N(Cc1ccccc1)CC2	-5	3	9%	1.5	-23

The listing continues:
SMILES	Arbovirus anti	Mtb betalactam	Mtb growth	RecA intein inh	YopH inh	others
Nc1cc(Cl)nc(N/N=C/c2ccc([N+](=O)[O-])cc2)n1	-3	-4	-1%	-2.9	-8
CCCCCCOc1ccc(N2C(=O)CC(N(CCc3ccc(S(N)(=O)=O)cc3)C(C)=O)C2=O)cc1 (stereo unspecified)	-2	-4	-10%	-1.8	.
COc1cc2c(cc1OC)CN(C(=O)c1oc3ccccc3c1C)CC2	.	9	.	4.4	.
COc1ccccc1C(CNC(=O)c1cccc(S(=O)(=O)NCc2ccccc2)c1)N(C)C (stereo unspecified)	.	-1	.	-0.2	.
CC1CCc2nn(CC(=O)NCCCN3CCOCC3)cc2C1 (stereo unspecified)	3	?	-5%	-2.8	-17	Arbovirus anti repeat=3
O=C(NCc1cccnc1)C1CC(c2ccccc2O)=NO1 (stereo unspecified)	.	0	.	-2.0	.
COc1ccc(CCNc2ccc(N3C(=O)CC(C)C3=O)cc2[N+](=O)[O-])cc1 (stereo unspecified)	2	-1	-4%	0.4	.
Cc1ccc(S(=O)(=O)NNC(=O)c2ccc(NC(=O)C3CC3)cc2)cc1	.	0	.	1.6	.
COc1ccc2[nH]c3c(c2c1)CCN1C(=O)N([C@@H](C)C(=O)NC2CCCCC2C)C(=O)[C@]31C (stereo partly specified)	.	7	.	5.6	.
COc1cc(OC)cc(C(=O)NNC(=O)c2ccccc2Br)c1	2	-6	12%	-1.0	-7
O=C1CC(Cc2ccccc2)C(=O)N1c1ccc(Cl)cn1 (stereo unspecified)	4	-5	0%	0.2	-35
CCCCCC/C=N/Nc1nnc(Cc2ccccc2)c(=O)[nH]1	.	-4	.	-1.4	.
CCCOC(=O)c1ccc(Oc2c(-c3ccc(OC)cc3O)n[nH]c2C)cc1	-37	5	-13%	7.0	-10
Cc1sc2ncnc(-n3cnc4ccccc43)c2c1C	5	5	2%	-1.3	-40
Cc1ccccc1CNC(=O)C(=O)NCC1OCCCN1S(=O)(=O)c1ccc(F)cc1C (stereo unspecified)	.	-9	.	2.0	.
O=S(=O)(c1ccc(NC(=S)NN=C(C2CC2)C2CC2)cc1)N1CCOCC1	.	-3	-7%	6.8	.
CC(NC(=O)C1CCC(CNS(=O)(=O)c2ccc3c(c2)C(C)(C)C(=O)N3C)CC1)c1ccccc1 (stereo unspecified)	.	1	.	1.4	.
CC1(C)CC(=O)c2c(n(-c3cccc4ccccc34)ccc2=O)C1	13	-4	6%	0.3	-17
N#Cc1c(NC(=O)C2CC(Cl)=CCC2C(=O)O)sc2c1CCCCC2 (stereo unspecified)	32*	-5	-8%	1.4	.
Cc1c(Cl)cccc1Nc1nc(N)nc(CSc2nc3ccccc3s2)n1	17	53	25%	0.7	8

Retrieved by structure from the entries so far, four records:
SMILES	Arbovirus anti	Mtb betalactam	Mtb growth	RecA intein inh	YopH inh	others
Cc1c(Cl)cccc1Nc1nc(N)nc(CSc2nc3ccccc3s2)n1	17	53	25%	0.7	8
CCCOC(=O)c1ccc(Oc2c(-c3ccc(OC)cc3O)n[nH]c2C)cc1	-37	5	-13%	7.0	-10
CC(NC(=O)C1CCC(CNS(=O)(=O)c2ccc3c(c2)C(C)(C)C(=O)N3C)CC1)c1ccccc1 (stereo unspecified)	.	1	.	1.4	.
O=C1CC(Cc2ccccc2)C(=O)N1c1ccc(Cl)cn1 (stereo unspecified)	4	-5	0%	0.2	-35

Later entries:
SMILES	Arbovirus anti	Mtb betalactam	Mtb growth	RecA intein inh	YopH inh	others
Cc1cc(=O)c(C(=O)O)nn1-c1ccccc1	0	-4	-8%	0.6	.
Nc1nonc1-n1nnc(C(=O)N/N=C/c2cccnc2)c1CSC1=NCCS1	.	-10	6%	12	.
COc1ccccc1CO/N=C/c1cccn1-c1nccc(N(C)C)c1C#N	3	-16	-7%	2.9	-16
Cc1ccc(NC(=O)c2[nH]cnc2C(=O)NN)cc1	-3	-3	-5%	-6.0	.
CC1(C)CC(=O)C(C=NCCN2CCN(CC(=O)Nc3ccc(F)cc3)CC2)=C(O)C1	.	3	1%	-1.2	.
COc1ccccc1N1CCN(C(=O)C2CCN(S(=O)(=O)N3CCOCC3)CC2)CC1	3	.	2%	.	-19
O=C(Nc1cccc(S(=O)(=O)NC2=NCCCCC2)c1)c1cc(-c2ccccc2Cl)nc2ccccc12	1	1	6%	3.3	-24
O=C(CCCCCN1C(=O)[C@@H]2Cc3ccccc3CN2C1=O)Nc1ccccc1F	.	-9	.	5.1	.
CCOC(=O)c1sc2nc(N3CCOCC3)c3c(c2c1N)CCC3	-7	1	-1%	-0.4	-52
NCc1ccc2[nH]c(=O)[nH]c2c1	2	5	4%	-2.9	.
O=C(Cc1nnc(NC(=O)c2ccccc2)s1)N/N=C/c1ccc(O)cc1	.	1	.	-1.7	.
COc1ccc(/C=N/N2CCN(C)CC2)c(OC)c1OC	3	3	-5%	-3.5	.
O=C(CN(C(=O)CNS(=O)(=O)c1ccc(F)cc1)c1ccc(F)cc1)NCc1ccco1	.	0	.	2.0	.
O=C1CC2(CCN(S(=O)(=O)c3ccccc3)CC2)Oc2ccccc21	.	-2	.	3.0	.
O=C(Nc1ncn[nH]1)c1cc(S(=O)(=O)Nc2ccc(Cl)cc2)ccc1Cl	1	1	8%	7.3	-26
CCOC(=O)c1[nH]c(C)c(CN(C(C)=O)c2ccc(OCC)cc2)c1C	-19	-4	5%	2.2	.
COc1ccc(-n2c(=S)[nH]c3cc(C(=O)Nc4ccc(C)c(F)c4)ccc3c2=O)c(OC)c1	.	83	.	3.9	.
Cc1ccc(Cl)c(OCCN2CCCC(C)C2)c1 (stereo unspecified)	-15	3	0%	2.1	-20
Cc1ccc(S(=O)(=O)Nc2ccc(NC(=O)CN3CCCCC3)c(Cl)c2)cc1	-7	-13	-2%	-0.3	-2
CCOc1ccc(NC(=O)c2ccc3[nH]c(=O)c(=O)[nH]c3c2)cc1	.	3	.	3.0	.
CCOc1ccc(-c2nc(N)nc(C)c2-c2ccc(Cl)cc2)c(O)c1	.	97	.	2.9	.
Cc1ccc(NC(=O)NCCN2CCCCC2)cc1C	.	0	.	1.2	.
Cc1ccc(N)cc1S(=O)(=O)N(C)C	2	6	4%	-2.9	.
C/C(=N/NC(=O)c1cnccn1)c1ccncc1	3	-6	-7%	-4.4	.
Cc1ccc2cc(CCNC(=O)c3ccc(C)c([N+](=O)[O-])c3)c(=O)[nH]c2c1	7	-9	2%	6.7	-30
CC(c1ccccc1)n1c(-c2cccs2)nc2c(c(=O)c3ccccc3n2C)c1=O (stereo unspecified)	.	48	10%	.	.
Cc1c(C(=O)NC2CCC(C)CC2)oc2ccccc12 (stereo unspecified)	.	?	.	4.5	.
COC(=O)[C@@]1(Cc2ccc(F)cc2)[C@H]2c3cc(C(=O)N(C)C)n(CCc4ccccn4)c3C[C@H]2CN1C(=O)c1ccccc1	-3	-4	-18%	1.6	-18
O=C1CN(C(=O)COC(=O)C2=COCCO2)c2ccccc2N1	2	-4	-1%	-2.5	-21
O=C(COC(=O)CCc1nc2ccccc2s1)Nc1nc(-c2ccccc2)cs1	-2	8	10%	0.9	-30
COCCSc1nnc(NC(=O)c2cc(OC)c(OC)cc2[N+](=O)[O-])s1	5	2	-2%	-1.2	.
COc1ccccc1CNC(=O)N1CCN(c2ccccc2Cl)CC1	.	3	.	-0.4	.
CC#CCN(CC#CC)S(=O)(=O)c1ccc(S(=O)(=O)N2CCOCC2)cc1	2	8	-1%	3.4	-19
